RE007 growth inh: less growth of the S. pombe RE007 Vpr strain; AID 651644; S. pombe RE007 Vpr strain, BacTiter-Glo ATP luminescence, 24 h; control for the full effect not named in the record; 360,000 compounds, 0.21% hits; Potency, µM (series often up to 92.2 µM), for the others: at the top dose activity change, negative = less growth; active = well fitted falling curve with a large enough effect; inconclusive = small, poorly fitted or top-dose-only effect; inactive = no such curve, though single readings can be large or run the other way;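 note: % is set by controls: 0 for no effect and ±100 for the full control effect; nearly all actives have a fitted effect of over 50% in size; the assay follows cell death caused by Vpr and the record does not say whether a fall means rescue or toxicity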
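Fission yeast RE007 carrying one integrated HIV-1 vpr copy, seeded at OD 0.01 in PMG+AL medium with 23 nL pinned compound. Grown 24 h at 30 degrees; viability read by BacTiter-Glo luminescence after 5 min.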
Marburg entry inh: inhibitors of Marburg virus binding or cell entry; Marburg virus pseudotyped entry inhibition, cell reporter; control for the full effect not named in the record; about a third of the inactives were read at about 46 µM; Potency, µM (series often up to 37.8 µM), without a hit: top-dose activity change, negative = inhibition, usual class: inhibitors; 300,000 compounds, 1.8% hits; AID 540276; active = well fitted inhibition curve with a large enough effect; inconclusive = small, poorly fitted or top-dose-only effect, or effect the other way; inactive = flat fitted curve, though single readings scatter; tested in HEK293 cells; about a fifth of its hits are not listed in these tables; note: % is set by controls: 0 for no effect and ±100 for the full control effect; luciferase read-out
Cruzain noTriton: blocks cruzain activity in detergent-free assay. Potency, µM, for the others: max response, negative = inhibition, actives largely listed as inhibitors. purified cruzain, Z-FR-AMC fluorescence, no detergent. P25779. AID 1476. 200,000 compounds, 2.3% hits;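 note: plate controls were enzyme without inhibitor for no effect and buffer without enzyme for full effect; nearly all actives have a fitted effect of over 40% in size; top concentration of the series not given in the record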
Target sequence (P25779 123-467 limits assumed): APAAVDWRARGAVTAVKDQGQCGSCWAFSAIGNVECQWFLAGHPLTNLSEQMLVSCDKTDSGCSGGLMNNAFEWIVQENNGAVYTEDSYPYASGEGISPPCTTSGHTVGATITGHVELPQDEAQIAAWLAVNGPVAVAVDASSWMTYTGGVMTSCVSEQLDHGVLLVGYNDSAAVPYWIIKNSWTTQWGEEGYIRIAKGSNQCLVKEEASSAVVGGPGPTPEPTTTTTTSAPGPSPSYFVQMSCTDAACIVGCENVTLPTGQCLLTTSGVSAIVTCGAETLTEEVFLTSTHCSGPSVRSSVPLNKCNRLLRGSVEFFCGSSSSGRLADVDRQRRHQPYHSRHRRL
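Detergent-free condition (0.00005% Triton X-100) in acetate buffer pH 5.5 with DTT. 1.5 nM enzyme and compound were pre-mixed 15 min, then 2 uM Z-FR-AMC substrate added; reaction progress from fluorescence change between first and third reads (60 s).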
NS1 inh: blocks influenza NS1 protein function | S. cerevisiae slowed by influenza A NS1, growth recovery by OD600 | Potency, µM (highest dose often 46.1 µM), for the others: at the top dose activity, positive = more growth | 270,000 compounds, 0.4% hits | AID 2326; active means well fitted rising curve with a large enough effect; inconclusive means small, poorly fitted or top-dose-only effect; inactive means no such curve, though single readings can be large or run the other way; note: nearly all actives have a fitted effect of over 50% in size
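Read-out: OD600 growth recovery of NS1-expressing budding yeast. Cells grown overnight at 30C in -URA glucose medium, washed, resuspended and diluted 1:100 in 2% galactose assay medium, pH 6.0. Same strain lacking NS1 served as positive control.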
SARS PLpro yeast: inhibitors of SARS-CoV papain-like protease in yeast | S. cerevisiae expressing SARS-CoV PLpro, growth rescue; control for the full effect not named in the record | Potency, µM (titrated, usually from 32.9 µM), for inactives: top-dose activity, positive = growth rescue | 330,000 compounds, 0.19% hits | AID 485353; active means well fitted rising curve with a large enough effect; inconclusive means small, poorly fitted or top-dose-only effect; inactive means no such curve, though single readings can be large or run the other way; note: 0% is about no effect; nearly all actives have a fitted effect of over 55% in size; growth read by luminescence after 48 h
StopGo reporter: FMDV 2A StopGo reporter, luciferase signal; Potency, µM (top dose mostly 57.9 µM), for the others: at the highest dose signal change, negative = less light; 410,000 compounds, 1.2% hits; AID 1159524; human cells with a luciferase reporter of 2A StopGo recoding; control for the full effect not named in the record; active = well fitted falling curve with a large enough effect; inconclusive = small, poorly fitted or top-dose-only effect; inactive = no such curve, though single readings can be large or run the other way; tested in HEK293T cells; note: % is set by controls: 0 for no effect and ±100 for the full control effect; nearly all actives have a fitted effect of over 45% in size; luciferase light after 4 h
Cruzain inh Det: blocks cruzain activity in presence of Triton detergent; P25779; purified cruzain, Z-FR-AMC fluorescence, 0.01% Triton; Potency, µM, for inactives: max response, negative = inhibition, usual class: inhibitors; 200,000 compounds, 0.43% hits; AID 1478;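 note: plate controls were neutral wells for no effect and buffer without enzyme for full effect; nearly all actives have a fitted effect of over 40% in size; top concentration of the series not given in the record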
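Enzyme 1.5 nM, Z-FR-AMC 2 uM, NaOAc 100 mM pH 5.5, DTT 5 mM, Triton X-100 0.01%; 15 min RT compound preincubation; kinetic ex360/em450, 60 s delta.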
LASV entry inh: Lassa virus entry inhibition. Lassa virus pseudotype entry inhibition, cell reporter; control for the full effect not named in the record. Potency, µM (titrated, usually from 37.9 µM), for the others: at the top dose activity change, negative = inhibition, actives largely listed as inhibitors. 300,000 compounds, 1.2% hits. AID 540256; active means well fitted inhibition curve with a large enough effect; inconclusive means small, poorly fitted or top-dose-only effect, or effect the other way; inactive means flat fitted curve, though single readings scatter; tested in HEK293 cells; note: % is set by controls: 0 for no effect and ±100 for the full control effect; nearly all actives have a fitted effect of over 50% in size; luciferase read-out
Numbers without * were called inactive; ? = inconclusive; . = no result given; & = joins results of further samples; [ ] = dose if it differs, or a comment. Unless noted, calls come from the whole dose curve; as a rule, active = well fitted curve in the direction sought with a large enough effect; inconclusive = small, poorly fitted or top-dose-only effect, or another doubt; inactive = no such curve, though single readings can be large; an effect the other way counts as inactive or inconclusive. Potency is the fitted concentration of half-maximal effect.

SMILES	RE007 growth inh	Marburg entry inh	Cruzain noTriton	NS1 inh	SARS PLpro yeast	StopGo reporter	Cruzain inh Det	LASV entry inh
COc1ccc(Cl)cc1NC(=O)c1nc2nc(C)cc(C(F)F)n2n1	8%	.	2%	-7%	1%	-14%	-0.9%	.
O=C1/C(=C/c2cccc(F)c2)SC(=S)N1NS(=O)(=O)c1ccccc1	-4%	-2%[46.1 µM]	.	-64%	-5%	-15%	.	-1%
Cc1ccc(C2=CC(c3ccc(Cl)cc3)n3nc(-c4ccc(C)cc4)nc3N2)cc1 (stereo unspecified)	.	?	?	.	.	-13%	-3.9%	?
COc1ccc(CC(=O)NNC(=O)COc2ccc(Br)cc2C)cc1OC	1%	-23%	?	12%	-2%	-26%	-0.3%	9%
Cc1nc(-c2ccccc2)sc1-c1ccc(SCC(=O)NCc2ccc(F)cc2)nn1	.	.	0%	.	.	-9%	-1.1%	-5%[46.1 µM]
O=C(OCC(=O)N1CCCCCC1)c1ccc(F)cc1F	-22%	23%[46.1 µM]	.	.	6%	23%	.	16%
COc1cccc(Nc2sc(C(=O)c3ccc(Cl)cc3)c(N)c2C(=O)NCc2ccc(C)cc2)c1	.	.	?	.	.	?	-0.2%	?
Nn1c(COc2cccc(Br)c2)nnc1SCC(=O)N1CCc2ccccc2C1	6%	-16%&-16%	10%	5%	-6%	-16%	-1.8%	0%
CCn1c(SCc2ccc(Cl)cc2Cl)nc2nc3c(cc2c1=O)CCCC3	-22%	-24%	-3%	21%	11%	-15%	0.0%	-21%
COc1ccc(C2Nc3ccccc3-c3cc(C)nn32)cc1OC (stereo unspecified)	.	.	9%	.	.	-24%	-4.9%	-26%[46.1 µM]
Cc1ccc(C)c(Cn2nnc3c(=O)[nH]c(C4CCCN(C(=O)c5ccco5)C4)nc32)c1 (stereo unspecified)	-19%	1%	.	-1%	4%	-18%	.	?
CCN(CC(O)Cn1c2ccccc2c2ccccc21)S(=O)(=O)c1ccc(F)cc1 (stereo unspecified)	13%	?	?	8%	-32%	28µM*	2.8%	-3%
Cc1c(NC(=O)c2cc3ccccc3o2)c(=O)n(-c2ccccc2)n1C	-1%	23%	-5%	13%	6%	18%	1.6%	1%
O=C(CC1C(=O)NCCN1Cc1ccc(-c2ccccc2)cc1)NCC1CCOCC1 (stereo unspecified)	-21%	-2%	.	0%	0%	-11%	.	-28%[46.1 µM]
O=C(CSc1nnc(NC(=O)C2CC(=O)N(c3ccccc3)C2)s1)NCc1ccco1 (stereo unspecified)	-6%	.	.	4%	-3%	-15%	.	.
CCC(C)C(NS(=O)(=O)c1ccc(C)cc1)C(=O)N1CCOCCOCCOCC1 (stereo unspecified)	9%	-17%[46.1 µM]	.	-5%	0%	6%	.	-20%[46.1 µM]
Cc1cccc(OCC(=O)Nc2ccc3c(c2)nc(CCN2CCN(C)CC2)n3C)c1	-1%	17%	-5%	-10%	?	-21%	0.1%	14%
COc1ccc(CNC(=O)c2cccn2-c2nnc(N3CCCCC3)s2)c(OC)c1	.	.	-3%	.	.	-5%	1.1%	2%[46.1 µM]
O=[N+]([O-])c1nn(-c2ccc(Cl)cc2)n(O)c1=NCc1ccccc1Cl	?	1%[46.1 µM]	.	-2%	3%	19%	.	-16%[46.1 µM]
CC1(C)C2CCC1(C)C(SC(=N)N)C2 (stereo unspecified)	?	?	.	.	.	-17%	.	-12%[46.1 µM]
Cc1nn(Cc2ccccc2)c2c1C(c1ccccc1)C(C#N)=C(N)O2 (stereo unspecified)	6%	?	19%	8%	-6%	-10%	-11%	-1%
Cc1ccc(C(=O)O)cc1NC(=S)NC(=O)C(c1ccccc1)c1ccccc1	10%	29%[46.1 µM]	18%	?	6%	-3%	-12%	29%
CCOC(=O)N1CCN(C(=O)c2ccc(-n3c(=S)[nH]c4ccccc4c3=O)cc2)CC1	-1%	-22%	5%	18%	5%	-10%	-0.3%	-1%
Cn1cnnc1SCCn1c(N2CCCCC2)nc2c1c(=O)[nH]c(=O)n2C	-3%	?	7%	11%	-10%	-20%	10%	-5%
COC(=O)CN1C(=O)CSc2ccc(S(=O)(=O)Nc3cc(C)ccc3C)cc21	.	.	-2%	.	.	-1%	-6.2%	-3%[46.1 µM]

(more compounds)
SMILES	RE007 growth inh	Marburg entry inh	Cruzain noTriton	NS1 inh	SARS PLpro yeast	StopGo reporter	Cruzain inh Det	LASV entry inh
COc1cc(-c2cc(C(=O)O)c3c(OC)c(OC)c(OC)cc3n2)ccc1O	-2%	29%[46.1 µM]	-11%	0%	-15%	-9%	-7.4%	3%
COC(=O)c1cccc(C23CC4(C2)[C@H](CN(Cc2ccc(C(F)(F)F)cc2)[C@@H]4c2ccccc2)C3c2ccc(Cl)nc2)c1 (stereo partly specified)	-1%	.	0%	4%	-3%	-24%	-3.3%	.
Cc1ccc(-c2nc3ccccn3c2NCc2ccc3c(c2)OCO3)cc1	-19%	?	-3%	-122%	-22%	11%	-11%	?
Cc1cccc(C)c1OCc1cc(C(=O)N2CCC(c3ccncc3)CC2)no1	-16%	?	.	-24%	-13%	-4%	.	14%[46.1 µM]
Cc1cc(C)c(NC(=O)CSc2nc3ccncc3[nH]2)c(C)c1	-7%	28%&1%[46.1 µM]	18%	3%	-5%	?	-1.0%	?
O=C(COC(=O)CCc1nc2ccccc2s1)Nc1ccc(Cl)cn1	2%	-17%	-2%	-1%	17%	-1%	-4.5%	-12%
COc1ccc(OC)c(CN2CCN(C(=O)CN3C(=O)NC4(CCCC4)C3=O)CC2)c1	-3%	18%	.	.	-1%	-24%	.	0%
C=CCN(C(=O)c1oc2c(Cl)cc(C)cc2c1C)C1CCS(=O)(=O)C1 (stereo unspecified)	-7%	.	.	-35%	-5%	6%	.	.
CN1CCN(C2CC(=O)N(CCc3ccccc3)C2=O)CC1 (stereo unspecified)	-6%	.	.	-3%	-1%	0%	.	.
O=C(Nc1ccccc1)c1ccc(-c2ccc(Br)cc2)o1	?	-103%	-7%	-1%	-68%	20%	-7.9%	?
CC(=O)Nc1ccc(S(=O)(=O)NNC(=O)c2ccc3c(c2)OCO3)cc1	0%	?	.	13%	0%	-11%	.	10%
Cc1cccc(N2C(=O)C(O)=C(C(=O)c3cccs3)C2c2ccc(Cl)cc2)n1 (stereo unspecified)	-13%	3%	.	-3%	-3%	-2%	.	6%
Nc1c(N(CCO)C(=O)COc2ccc(Cl)cc2)c(=O)[nH]c(=O)n1Cc1ccccc1	-7%	0%	3%	3%	-2%	-15%	-1.2%	?
Cc1cc(C)c2c(NC(=O)c3ccccc3Cl)c(C(=O)Nc3ccc(C)c(C)c3)sc2n1	.	?	3%	.	.	35%[activator]	0.3%	2%[46.1 µM]
CCOCCCNC(=O)c1ccc(OC)c(OC2CCN(C(C)C)CC2)c1	-1%	.	.	28%	4%	-13%	.	.
CC1([N+](=O)[O-])COP(=O)(NCc2cccnc2)OC1 (stereo unspecified)	1%	?	.	.	.	-13%	.	1%
O=C(Cn1cc2c(n1)CCCCC2)Nc1c(F)c(F)cc(F)c1F	-8%	.	-2%	-8%	4%	-16%	2.9%	.
CCOC(=O)C1(Cc2cccc(F)c2)CCN(C(=O)C2CCOCC2)CC1	4%	-1%[46.1 µM]	.	-5%	0%	-17%	.	0%
Cc1cccc(CC2CC(=O)N(CCc3ccc4c(c3)OCO4)C2=O)c1 (stereo unspecified)	-11%	14%[46.1 µM]	.	-2%	0%	-6%	.	-5%
COc1cccc(/C=C2\Oc3ccc(O)cc3C2=O)c1O	-13%	?	.	-31%	0%	11µM*	.	?
O=C(c1ccccn1)N1CCN(C(=O)c2ccccn2)CC1	1%	18%	-1%	1%	5%	19%	8.1%	17%
COc1ccccc1CNC(=O)Cn1ccsc1=N	-1%	-14%[46.1 µM]	.	1%	2%	?	.	11%[46.1 µM]
CN(C)[C@@H](CO)c1nnc([C@H](CC(=O)O)NC(=O)C2CCNCC2)o1	23%	.	.	5%	1%	-10%	.	.
Cc1cc2c(cc3c(SCC(=O)Nc4ccc(Cl)cc4F)nncn32)o1	.	.	-6%	.	.	-14%	-3.8%	-14%[46.1 µM]
Cc1nc(C(=O)Nc2cccc(Cl)c2)nn1-c1cc(OC(C)C)c(Cl)cc1Cl	-12%	?	?	-11%	-25%	?	-0.8%	-9%

The list continues.
SMILES	RE007 growth inh	Marburg entry inh	Cruzain noTriton	NS1 inh	SARS PLpro yeast	StopGo reporter	Cruzain inh Det	LASV entry inh
CC1CC=CCC1(CO)CO (stereo unspecified)	9%	9%	.	.	.	-8%	.	-12%[46.1 µM]
Cc1cc(NC(=O)c2ccc(NC(=O)C(C)Oc3ccccc3)cc2)no1 (stereo unspecified)	-1%	9%	-3%	-2%	25%	.	0.4%	6%
O=C(CSc1nc2nc[nH]c2c(=O)[nH]1)NC1CCCCC1	7%	15%[46.1 µM]	0%	?	-2%	10%	-0.2%	6%
CC1=C(C(=O)OCc2ccccc2)C(c2ccc(C)o2)C2=C(CCCC2=O)N1 (stereo unspecified)	10%	?	6%	-18%	-1%	-22%	-6.1%	?
Cc1cccc(NC(=O)c2cc3c(=O)n4ccccc4nc3n2C)c1C	.	.	-4%	.	.	15%	-6.7%	-12%[46.1 µM]
O=C(Nc1ccnn1C1CCNCC1)c1ccc2c(c1)OCO2	2%	3%[46.1 µM]	.	.	.	11%	.	2%
C=CCn1c(=O)n(C)c2c(=O)n(C)c(=O)n(C)c21	6%	6%[46.1 µM]	.	.	.	36%[activator]	.	-26%[46.1 µM]
O=C(O)COCC(=O)NCc1nc(-c2ccc(C(F)(F)F)cc2)no1	2%	8%[46.1 µM]	.	0%	-4%	-13%	.	10%
CCOC(=O)C1=C(COC(=O)Cc2ccccc2F)NC(=O)NC1C (stereo unspecified)	3%	-2%	.	.	2%	-3%	.	?
Cc1nnc(Nc2ccc(S(N)(=O)=O)cc2)c2ccccc12	1%	-13%[46.1 µM]	.	13%	1%	4%	.	?
COc1ccccc1/C=N/NC(=O)C(C)Cn1cnc2ccccc21 (stereo unspecified)	8%	.	-3%	-4%	6%	-26%	-11%	.

Rows were taken by chance (roughly 4.7% active in at least one column).
